Ab BasE inh: blocks the Acinetobacter baumannii siderophore enzyme BasE | purified BasE, fluorescence polarization binding displacement | inhibition, % (no concentration beside the values) | hit rate 0.1% among 84,000;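 active = both replicates above 25% with normal brightness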;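 note: 0% = negative plate control signal and 100% = positive plate control signal; stock transfer was 100 nL into about 30 µL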
LANA-nucl inh: LANA-nucleosome interaction inhibition | FITC-LANA1-23 / chicken nucleosome fluorescence polarization; stronger effect = lower value | z-score (no concentration beside the values) | hit rate 0.3% among 51,000;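 active = both repeat wells score below -2 in polarization z-score versus plate sample wells, excluding overly bright wells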;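 note: 100 nL library stock added to about 30 µL; numbers are from one replicate; some results filed as inactive read as strong as hits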
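System – purified chicken nucleosomes with FITC-labelled LANA N-terminal peptide (1-23) · Amount – 240 nM purified chicken nucleosomes (480 nM peptide binding sites), final · Also added – 50 nM FITC-LANA1-23 probe · Medium – TEN-BT buffer, pH 7.5 · Incubation – compound with peptide–nucleosome mix 10–45 min at room temperature · Detection – fluorescence polarization, ex 480 nm, em 535 nm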
An asterisk follows results filed as active; . = not tested or not shown; & = joins results of further samples. Not all compounds are listed; count on the stated rates, not on these rows.

mol,Ab BasE inh,LANA-nucl inh
CCC1(CC)Cc2ccccc2C(N)=C1C#N,2.4,-0.457
O=C(O)CSCC(=O)N1CCCN(c2ccc(C(F)(F)F)cn2)CC1,-1.3,.
COc1ccc(-c2nnc3sc(C(C)N4C(=O)c5ccccc5C4=O)nn23)cc1 (configuration not stated),1.9,-0.14
Nc1nc2ncc(CNc3ccc(C(=O)N[C@@H](CCC(=O)O)C(=O)O)cc3)nc2c(=O)[nH]1,1.7,-0.104&0.133
O=C(C1CCCN1)N1CCOCCOCCOCC1 (configuration not stated),-2.9,0.706
CS(=O)(=O)N(Cc1nc(-c2cccs2)no1)c1ccc(F)cc1,-3.5,0.732
CCN(CC)S(=O)(=O)c1cc(-c2nn(C)c(=O)c3ccccc23)ccc1C,-1.1,.
Cc1nn(-c2ccccc2)c(C)c1-c1nc2ccccc2[nH]c1=O,0.2,.
Cn1c(=O)[nH]c2c(c1=O)C(c1ccc(F)cc1)C1=C(COC1=O)N2 (configuration not stated),-2.1,.
Cc1nc(N)nc2c1C(=O)CC(c1ccccc1)C2 (configuration not stated),1.0,-0.732
CN(C)C1(CN)CCCCC1,-1.4,0.291
CCCc1ccc(NC(=S)OCC)cc1,-2.1,.
Cc1ccsc1C=Nc1cccc2c(=O)[nH][nH]c(=O)c12,0.5,0.0725
Cc1ccc(Cn2c(/N=C/c3ccc(Br)cc3)nc3ccccc32)cc1,-0.8,.
CC(=O)OCC(=O)[C@@]1(O)CCC2C3CCC4=CC(=O)C=CC4(C)C3C(=O)CC21C (some centres not stated),-2.2,0.534
Cc1csc(=Nc2c(C)n(C)n(-c3ccccc3)c2=O)n1Cc1ccccc1,-1.1,.
CC(C)C(NC(=O)c1ccc(Cl)cc1)C(=O)NCC1CCCO1 (configuration not stated),1.2,.
CC(=O)Nc1c(I)c(NC(C)=O)c(I)c(C(=O)O)c1I,.,1.57
COc1ccc(CCN(C)C(=O)COc2ncnc3ccccc23)cc1OC,-0.2,.
CCOC(=O)Nc1cccc(Nc2ccccc2)c1,1.6,0.129
CN(C)/C=C/C(=O)c1csc(-c2ccccc2)n1,1.4,0.15
CCOc1ccc2nc(NC(=O)Nc3ccc(F)cc3)sc2c1,1.2,.
CCN(CC)CC(=O)Nc1scc2c1c(=O)oc1ccccc12,0.8,0.0295
C=CCn1c2ccccc2c2nnc(SCCC)nc21,0.8,0.142
CCCCCCCCCCCCCCCCCCc1ccc(C(=O)/C=C/C(=O)O)cc1,3.2,1.68
O=C(O)CCc1ccc(-c2cccs2)n1CC(=O)Nc1ccccc1,0.1,-0.373
Cc1ccc(C(=O)N2CC(=O)NC(=O)C2)cc1,3.6,-0.268
COC(=O)c1ccc(COc2coc(CN3c4ccccc4CC3C)cc2=O)cc1 (configuration not stated),-0.7,0.423
CCOC(=O)C1=C(C)NC(SCC(=O)O)=C(C#N)C1c1ccco1 (configuration not stated),7.2,.
CC(=O)N1CN(Cc2ccccc2)Cc2c1sc1c2CCCC1,-0.5,.
CC1SC(=N)N(c2ncc(Cc3ccccc3Cl)s2)C1=O (configuration not stated),0.1,-0.437
COc1ccc(-c2cc(C(F)F)n3ncc(C(=O)N4C(C)CCCC4C)c3n2)cc1 (configuration not stated),1.7,-1.54
OC(CNCC1CCCO1)Cn1c2ccccc2c2ccccc21 (configuration not stated),-0.7,1.06
CC(=O)Nc1cccc(Cn2cccn2)c1,1.8,-0.144
O=C1CC(N(O)c2ccccc2)C(=O)N1Cc1ccccc1 (configuration not stated),1.1,2.7
O=C(O)CCn1[nH]c(=O)c2ccccc2c1=O,1.6,.
CCCCn1c(=O)c2ccccc2n2c(SCC(=O)N3CCN(c4ccccc4)CC3)nnc12,1.2,.
O=C(Cn1cnc2sccc2c1=O)NC(=O)NCc1ccco1,-0.5,.
C=CCNCCOc1ccc(Cl)c(Cl)c1,-2.5,-0.857
N#Cc1ccc(COC(=O)Cn2nc(-c3ccccc3)oc2=O)cc1,1.1,.
C[N+](C)(C)CC(=O)N1CCN(c2ccc3ccccc3n2)CC1,4.3,0.419
O=C(Cc1c(F)cccc1Cl)NCCCn1ccnc1,-3.2,2.41
CSc1nsc(SCC(=O)N(c2ccccc2)c2ccccc2)n1,2.6,0.333
CC1(C)CC(=O)c2c(nc3cc(Cl)ccc3c2N)C1,2.8,-0.907
Cc1cc(S(=O)(=O)N2CCOCC2)ccc1N=Cc1c(C)[nH]n(-c2ccc(Cl)cc2)c1=O,1.0,0.0465
O=S(=O)(c1cccc(C(F)(F)F)c1)c1cnc2ccccc2n1,.,0.274
C=CC[N+]1(C)Cc2ccccc2C1,-0.1,.
C=CCN1C(=O)CS/C1=N/c1nccs1,-0.7,-0.54
CC(C)(C)c1cc(C(C)(C)C)n(-c2ccc(Br)cc2)n1,3.3,-0.996
CNCc1ccccc1N1CCOCC1,0.8,.
CC1(C)CC(=O)C2=C(C1)Oc1ccc(Br)cc1C2,2.1,0.796
Cc1nn(CC(C)C)c(Cl)c1C(=O)NCC1COc2ccccc2O1 (configuration not stated),-1.1,.
COC(=O)c1c(OCC(=O)N(Cc2ccccc2)C(C)(C)C)cc(=O)n2c1CCCCC2,-3.4,.
CCOC(=O)c1sc(N/C=C(\C#N)c2nc3cc(Cl)ccc3o2)c(C#N)c1C,4.9,5.25
N#CC1=C(N)Oc2c(oc(CO)cc2=O)C12C(=O)Nc1ccccc12 (configuration not stated),0.2,0.19
COCCCn1c(-c2ccc(F)cc2)nc2c(c(=O)c3ccccc3n2C)c1=O,.,0.913
O=C(CCNS(=O)(=O)c1ccc2c(c1)OCCO2)NC1CCCc2ccccc21 (configuration not stated),0.9,.
O=C(c1ccc2ncsc2c1)N1CCOCC1,.,0.0145
O=C1C2C(C(=O)N1Cc1ccc(F)cc1)C1C=CC2C12CC2 (configuration not stated),1.0,.
Cn1c(=NC(=O)CN2C(=O)C3CC=CCC3C2=O)sc2ccccc21 (configuration not stated),-2.0,.

Some of the entries so far, with two lines to a compound.
Values run as follows: Ab BasE inh, LANA-nucl inh
- CC1(C)CC(=O)c2c(nc3cc(Cl)ccc3c2N)C1
 : 2.8, -0.907
- O=C1C2C(C(=O)N1Cc1ccc(F)cc1)C1C=CC2C12CC2 (configuration not stated)
 : 1.0, .
- N#CC1=C(N)Oc2c(oc(CO)cc2=O)C12C(=O)Nc1ccccc12 (configuration not stated)
 : 0.2, 0.19
- C[N+](C)(C)CC(=O)N1CCN(c2ccc3ccccc3n2)CC1
 : 4.3, 0.419

The listing continues.
mol,Ab BasE inh,LANA-nucl inh
COc1cccc(C(=O)ON2C(=O)c3ccccc3C2=O)c1,2.1,-0.698
COc1cccc(C(=O)Nc2ccccc2C#N)c1OC,0.2,0.343
COc1cccc(Cn2c(=O)n(CCc3ccccc3)c(=O)c3cccnc32)c1,0.3,-1.33
CN=C(N)NCCC[C@H](N)C(=O)O,.,0.149
Cc1noc(C)c1CSc1ccccc1C(=O)OCc1nnc(-c2ccccc2)o1,0.3,.
Nc1nnnn1/N=C\c1ccc(O)cc1,8.2,.
Cc1ccc2c(c1)sc(=NC(=O)C1=COCCO1)n2C,-1.2,-1.66
O=C(CN1CCNCC1)Nc1ccc(Cl)cc1Cl,-1.9,-1.43
CCOC(=O)Cc1csc(SCC(=O)NC(C)(C)C)n1,-1.7,.
CCN(C(=O)c1cccs1)c1nnc(-c2cccc(C)c2)s1,-2.3,-0.229
CCOC(=O)c1c(S(=O)(=O)N(C)Cc2ccccc2)c(C)n(C)c1C,-0.8,.
COCCCNc1nc(Nc2ccc(OC)c(Cl)c2)c2cnn(C)c2n1,-1.2,-1.37
Cc1noc(C)c1C(=O)N1CC(C(N)=O)Oc2ccccc21 (configuration not stated),-0.3,.
N#C/C(=C\c1cccn1-c1ccc(Cl)cc1)C(=O)O,1.4,0.486
Cc1cc(C)nc(/N=C(/N=C(\N)NC(=O)c2ccccc2)Nc2ccccc2)n1,0.2,.
CC1=C(C#N)c2nc(N)c(C#N)c(C)c2/C1=C\c1cccnc1,0.7,0.336
COC(=O)C(O)(c1cc(C)n(CC(C)C)c1C)C(F)(F)F (configuration not stated),-3.5,.
CCN(CC)S(=O)(=O)c1ccc(=O)[nH]c1,3.1,.
CN1CCN(C(c2ccccc2)c2ccc(Cl)cc2)CC1 (configuration not stated),-2.9,0.251&0.542
CCN(CC)N=Nc1ccc(S(=O)(=O)N=C(C)O)cc1,0.1,-0.712
CC1=C(CCN2CCN(Cc3ccccc3)CC2)C(C)(C)CCC1,1.8,0.153
CCC(=O)Nc1c(OC(=O)CC)ccc2c(C)cc(=O)oc12,1.8,-0.252
C/C(=N\NC(=O)Cc1c(C)[nH][nH]c1=O)c1ccc2ccccc2c1,5.8,0.19
CCCNC(=O)Nc1ccc(OC(F)(F)F)cc1,-3.7,.
CCOC(=O)N1CCC(n2c(SCC(=O)N3CCC(C)CC3)nc3ccccc3c2=O)CC1,-2.1,0.131
COC(=O)c1ccc(C(NC(=O)c2cccnc2)NC(=O)c2cccnc2)cc1,-0.8,.
CCCn1c(SCc2nc(N)nc(N)n2)nc2sc3c(c2c1=O)CCC3,-2.5,.
CCCCn1c2c(c(=O)n(C)c1=O)C(c1ccc(OC)cc1)C(NC(=O)c1ccccc1)C(=O)N2 (configuration not stated),1.1,.
CCn1c(CSCC(=O)NC(C)C)nc2cc(S(=O)(=O)N3CCCCC3)ccc21,0.8,.
COCC(C)n1c(C)cc(C(=O)COC(=O)c2cccn2C)c1C (configuration not stated),-0.7,.
Cc1ccc(-c2nc(=O)[nH]c3ccccc23)cc1,1.8,0.908
CCN1C(=O)CC(NC2CCN(c3ccc(C(F)(F)F)cn3)CC2)C1=O (configuration not stated),2.2,0.705
CCOc1ccc(-n2c(N)c(S(=O)(=O)c3ccccc3)c3nc(C#N)c(C#N)nc32)cc1,3.5,.
O=C1c2ccccc2N(S(=O)(=O)c2cccs2)C(=O)c2ccccc2N1S(=O)(=O)c1cccs1,2.0,.
O=C(Nc1ccc2c(c1)C(=O)N(C1CCCCC1)C2=O)c1ccc(Br)o1,1.7,-0.837
CCOC(=O)c1cc(-c2ccc(OC)cc2)nn1CCC#N,-0.3,.
COc1ccc(OCCCC(=O)Nc2ccc(S(=O)(=O)Nc3nccs3)cc2)cc1,2.8,.
Cc1nc(C)c(C(=O)N/N=C/c2ccc(N(C)C)cc2)s1,1.9,.
O=C(O)C1=Cc2ccccc2OC1,3.0,.
CC1CC(C)(C)NC(=S)N1CCC(=O)NCCN1CCCc2ccccc21 (configuration not stated),1.3,0.177

Three compounds from above, sorted by SMILES length, low to high:
mol,Ab BasE inh,LANA-nucl inh
Cc1ccc(-c2nc(=O)[nH]c3ccccc23)cc1,1.8,0.908
CCN(CC)N=Nc1ccc(S(=O)(=O)N=C(C)O)cc1,0.1,-0.712
CCCn1c(SCc2nc(N)nc(N)n2)nc2sc3c(c2c1=O)CCC3,-2.5,.

Further results follow:
mol,Ab BasE inh,LANA-nucl inh
Cc1cc(NC(=O)c2noc3c2CCc2ccccc2-3)n(-c2ccccc2)n1,1.2,-0.783
Cc1cc2nc(CSCc3ccco3)cc(=O)n2o1,-1.8,-0.157
O=C1c2ccccc2S(=O)(=O)c2cc(-c3nn[nH]n3)ccc21,0.9,-1.32
O=C1CC(Sc2nnc(-c3cccc(S(=O)(=O)N4CCOCC4)c3)o2)C(=O)N1c1ccc(F)cc1 (configuration not stated),1.4,.
C#CC(CC)(CC)NC(=O)Nc1ccccc1,-5.2,1.41
O=S(=O)(c1ccc(Sc2nnnn2C2CC2)nc1)N1CCCCC1,-0.5,.
COCC(=O)Nc1cccc(-c2ccc(S(C)(=O)=O)nn2)c1,0.8,-0.088
O=C(Cc1cn2ccsc2n1)N/N=C1\CC(c2ccccc2)Oc2ccccc21 (configuration not stated),-3.4,.
O=C(CS(=O)(=O)c1ccccc1Cl)N1CCOCC1,.,0.463
Cc1ccc(C)n1-c1ccc(-c2nc3ccccc3[nH]2)cc1,0.1,.
O=C(O)CSc1ccccc1Cl,-0.7,.
N#CC(C(=O)N1CCCC1)C(=S)Nc1ccccc1Cl (configuration not stated),1.0,.
C=CCn1c(SC(C)C#N)nc2cc(Cl)ccc2c1=O (configuration not stated),-3.4,.
Cc1cc(C)c2c(c1)-c1cc(C)nn1C(c1cccs1)N2 (configuration not stated),1.1,0.093
CC(=O)c1cc2ccccc2oc1=O,2.1,0.101
Cc1cc(C)n2cc(CN3CCc4ccccc4C3)nc2n1,-0.9,.
O=C(O)c1cc(-c2cccs2)nn1-c1cccc(Cl)c1,0.3,.
O=C1c2ccccc2CN1c1ccccc1,0.5,0.748
CN(Cc1cccs1)Cc1nc2scc(-c3ccccc3)c2c(=O)n1CC#N,0.8,.
CC(C)N1CCN(Cc2ccc3ccccc3c2)CC1,-0.9,0.587
COc1cc(C)c2c(c1)CCC1C2CCC2(C)C(O)CCC12 (configuration not stated),0.0,.
Nc1ccc(C(=O)c2ccccc2C(=O)O)cc1Cl,3.9,-1.07
COc1ccccc1C(=O)Nc1sccc1C(N)=O,-6.4,.
Cc1cc(C(=O)N/N=C/C(C)(C)C)nn1-c1ccc(C(C)C)cc1,-0.1,0.728
